T cruzi repl = T. cruzi replication inhibition | T. cruzi beta-gal in NIH3T3, luminescence, 90 h | inhibition, % (concentration not given with the values) | hit rate 1.4% among 300,000;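 active means mean inhibition across valid replicates above about 55%, limit read from the data; inconclusive means mean below that limit but half or more replicates reach it; inactive means mean below it, under half of replicates reach it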;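 further: signal also drops with host cell toxicity which is not excluded here; 0% = plate median of DMSO wells and 100% = zero luminescence signal; higher percent means less beta-gal luminescence so fewer parasites; stock transfer was 50 nL into about 50 µL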
Bfl-1 A1 inh = inhibitors of the anti-apoptotic protein A1, read as caspase activation | MEF A1-2A-BIM cells, Caspase-Glo 3/7 luminescence, 3 h; percent of clofoctol response, vehicle zero | caspase activation, % (concentration not given with the values) | hit rate 0.066% among 330,000 | AID 2462;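 active means over half of replicate activation scores above 10%, or exactly half above 10 with the replicate mean above 10; inconclusive means replicate mean below 10 yet half the replicates above 10; inactive means over half of replicates below 10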;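 further: wells of about 30 µL received 50 nL stock; many hits fall short of the cut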
Beta cell apopt = blocks beta cell apoptosis | INS-1E cytokine-induced death, ATP luminescence, 48 h; percent of positive-control rescue, neutral wells zero | protection from apoptosis, % (concentration not given with the values) | hit rate 0.8% among 300,000;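 active means all replicates at 75% or more, or half of them and the mean; inconclusive means half reach 75% but not the mean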;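 further: 0% = cytokine-treated negative control wells and 100% = positive control rescue; higher means more ATP so stronger rescue from cytokine killing; wells of about 40 µL received 100 nL stock; the first replicate is given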
AF4-AF9 inh = inhibitors of human MLL-AF4/AF9 interaction | AlphaScreen, biotin-AF4 peptide binding to FLAG-AF9 | inhibition, % at 10 µM | hit rate 0.47% among 350,000 | AID 651704;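 active means every replicate reaching a set inhibition limit, whatever the replicate mean, cut at about 25% in these data; inconclusive means mean inhibition reaches that limit but some replicates miss it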;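 further: 0% = plate neutral control median and 100% = total signal loss; the record names both 10 and 1 µM as test concentration; the first replicate is given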
Target sequence (P42568 whole entry, looked up): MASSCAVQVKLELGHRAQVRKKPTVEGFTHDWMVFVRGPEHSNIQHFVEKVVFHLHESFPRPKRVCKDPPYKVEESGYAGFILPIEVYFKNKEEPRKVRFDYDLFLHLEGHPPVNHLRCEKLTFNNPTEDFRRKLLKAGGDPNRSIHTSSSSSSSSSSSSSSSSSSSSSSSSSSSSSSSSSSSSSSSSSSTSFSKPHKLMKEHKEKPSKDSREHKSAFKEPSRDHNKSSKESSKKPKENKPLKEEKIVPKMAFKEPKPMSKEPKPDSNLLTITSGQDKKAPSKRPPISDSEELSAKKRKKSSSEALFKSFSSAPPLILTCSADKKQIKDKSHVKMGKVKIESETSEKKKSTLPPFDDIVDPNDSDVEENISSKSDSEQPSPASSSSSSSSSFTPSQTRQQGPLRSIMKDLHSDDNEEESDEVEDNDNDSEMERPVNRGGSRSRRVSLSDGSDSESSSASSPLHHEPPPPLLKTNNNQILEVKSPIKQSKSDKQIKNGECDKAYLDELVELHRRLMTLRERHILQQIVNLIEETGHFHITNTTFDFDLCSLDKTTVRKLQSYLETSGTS
Vif A3G = HIV-1 Vif–A3G interaction blockers – biochemical, TR-FRET, GST-Vif 1-94, biotin-A3G peptide, dose response retest, primary screen (AID 1117319). TR-FRET GST-Vif / biotin-A3G peptide binding; higher % means a stronger effect; test concentration not given here; strong numbers were not always called active. inhibition, %; hits with a dose series show IC50 in µM. hit rate 0.57% among 260,000;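 active means above the screen mean plus three standard deviations and confirmed in dose response; inconclusive means results disagree or hit not tested in dose response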;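 further: Vif residues 1-94 fused to GST binding biotinylated APOBEC3G peptide 110-148; 0% = full assay without inhibitor and 100% = GST in place of GST-Vif; retest series ran down from 100 µM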
Calb FLC = C. albicans growth modulation with fluconazole; hit rate 0.57% among 300,000; C. albicans CaCi-2 (fluconazole-resistant clinical isolate) + fluconazole, Alamar Blue growth, 48 h; growth inhibition, % (no concentration beside the values);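 active means most replicates above 75%; inconclusive means exactly half above 75%; inactive means most below 75%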;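 further: all wells also contain fluconazole at 8 µg/ml as a sub-toxic cotreatment; 0% = median of DMSO wells and 100% = median of geldanamycin control wells; wells of about 8 µL received 7.5 nL stock; the first replicate is given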
RanGTP-Impb inh = inhibitors of RanGTP-importin-beta interaction, primary screen, biochemical, FRET, CFP-Ran, YFP-importin-beta, homogeneous; cell-free CFP-Ran/YFP-importin-beta FRET ratio; hit rate 1.1% among 300,000; inhibition, % (test concentration not listed); AID 2216;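 active means most replicates above 15%; inconclusive means exactly half above 15%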;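 further: 0% = DMSO wells and 100% = Ran loaded with GDP instead of GTP; wells of about 40 µL received 100 nL stock; the first replicate is given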
LANA-H2B inh = blocks KSHV LANA binding to histone H2A/H2B; inhibition, % (test concentration not listed); AID 2629; hit rate 0.6% among 320,000; cell-free LANA-H2A/H2B peptide, fluorescence polarization; Q9QR71; in the data active means inhibition mostly above about 10%, no sharp cut-off; inactive means mostly below about 6.7%;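 further: stock transfer was 7.5 nL into about 10 µL; 0% = median of vehicle wells and 100% = median of positive control wells; one replicate is shown; the record names a cut of 25% in any replicate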
An asterisk follows results filed as active; ? = inconclusive; . = not tested or not shown; & = joins results of further samples. This is a random part of the collection. Share with any hit: about 4.3%.

SMILES	T cruzi repl	Bfl-1 A1 inh	Beta cell apopt	AF4-AF9 inh	Vif A3G	Calb FLC	RanGTP-Impb inh	LANA-H2B inh
CCOC(=O)C1=C(Cc2ccc(F)cc2)C(=O)c2ccccc2C1=O	-29	-0.4	33	.	?	31	-13	2.3
Cc1nn(CC(=O)c2ccc(Cl)cc2Cl)c(C)[n+]1N	-4	0.8	2	-2.9	-4%	1	?	-6.9
NC(=O)C1CCN(C(=O)c2cc3n(n2)C(C(F)(F)F)CC(c2ccco2)N3)CC1 (stereo not given)	-9	1.0	-2	-11	21%	11	1.2	-5.5
NS(=O)(=O)c1cc(C(=O)N=Nc2c(O)[nH]c3ccccc23)ccc1Cl	-15	0.3	6	5.7	.	4	0.4	-4.2
CCOC(=O)c1c(NC(=O)c2cc3n(n2)C(C(F)(F)F)CC(c2cccs2)N3)sc(C)c1C (stereo not given)	18	-1.2	2	.	.	-2	2.8	-0.2
C=CCOC(=O)C1=C[C@@H](C2CCCCC2)C[C@@H](OCc2ccc(CO)cc2)O1	16	-1.8	-1	-5.7	1%	-8	-0.3	4.4
Cc1cccc(C)c1Nc1nnc(SCc2cc([N+](=O)[O-])cc3c2OCOC3)s1	31	-0.4	1	-9.5	-2%	8	2.5	-0.9
COc1ccc(CNC(=O)C2CCC(CNc3nc(=S)[nH]c4ccccc34)CC2)cc1 (stereo not given)	7	-0.6	2	.	.	-2	-0.5	0.8
Cc1ccc2c(CSc3nc4nc(C)cc(C)n4n3)cc(=O)oc2c1	19	-0.1	0	.	3%	-7	-0.3	-7.2
Cc1nc2ccccc2n1CCOc1ccccc1	-8	1.5	0	-4.3	.	2	8.6	-1.0
CCOc1ccccc1N(C)C(=O)c1cn(CC)c(=O)c2cc(OC)c(OC)cc12	2	.	.	-2.2	.	-1	-3.7	.
O=C(NCCCN1CCCC1=O)c1ccc2c(=O)n(-c3ccc(F)cc3)c(=S)[nH]c2c1	-11	0.2	-6	-2.7	.	9	2.4	0.0
Cc1c(C)c2cc3c(C)coc3cc2oc1=O	-1	-0.6	-1	0.4	-1%	-4	2.7	-0.7
Cc1ccn2cc(-c3ccc(NS(=O)(=O)c4ccccc4)cc3)nc2c1	5	-0.1	-6	3.0	1%	46	-114	.
C/C(=N\NC(=S)NC1CCCCC1)c1ccc(C)o1	31	0.3	6	18	.	-25	3.8	-1.5
COc1ccccc1N/C=C1/Sc2cc(Cl)ccc2NC1=O	10	0.0	1	-10	.	-4	-1.1	2.4
C/C(Cc1ccccc1)=N\NC(=O)CNC(=O)c1ccccc1Br	-14	0.6	-9	.	-5%	?	-0.1	13
Nc1c(C(=O)NCc2ccc3c(c2)OCO3)nnn1-c1ccc(OC(F)(F)F)cc1	12	0.7	-9	.	4%	-27	-0.2	-4.0
Cc1ccc(OCC(=O)Nc2ccc3c(c2)nc(CCN2CCOCC2)n3C)cc1	13	0.7	-10	.	-2%	?	-6.4	5.2
CC(C)(C)C(=O)Nc1nnc(SCC(=O)NC2CCCC2)s1	-15	-0.7	1	-0.3	.	14	4.5	0.0
CN1C(=O)[C@H]2[C@@H](C3CC3)N3C(=O)CN(Cc4ccc(-c5ccccc5)cc4)C(=O)[C@@]3(C)[C@H]2C1=O	1	?	6	-0.2	.	-10	0.0	-4.5
CC(NC(=O)C1CCC(CNC(=O)[C@@H]2Cc3ccccc3CN2)CC1)c1ccccc1 (stereo not given in full)	9	0.4	-2	-0.2	.	.	-4.8	-3.9
O=C1/C(=C/C=C/c2ccccc2)Oc2c1ccc(O)c2CN1CCN(CCO)CC1	-23	0.6	-10	-3.6	10%	3	-5.0	-5.6
O=C(Nc1ccccc1Cl)C1(c2ccccc2)CC1(Cl)Cl (stereo not given)	-6	-0.1	-6	.	8%	3	0.0	3.2
O=C(O)C1CCC(N2C(=O)c3cccc([N+](=O)[O-])c3C2=O)CC1 (stereo not given)	-15	0.1	-8	0.4	-4%	-4	2.3	3.4
N#Cc1nc(Cc2cccc3ccccc23)oc1NCc1ccc2c(c1)OCO2	46	0.0	-6	.	14%	3	-0.2	-5.1
COc1ccccc1NS(=O)(=O)c1ccc2oc(=O)ccc2c1	-8	1.9	-6	1.6	-4%	-4	0.8	-4.7
COc1ccccc1N(CC(=O)Nc1ccc(F)c(F)c1)S(C)(=O)=O	5	1.1	0	.	?	4	2.6	3.9
CCCCS(=O)(=O)N1CCC(C(=O)Oc2ccccc2OC)CC1	3	0.1	-7	-1.5	2%	0	7.4	-1.0
O=C(N/N=C/c1ccccn1)C1CC1	-25	-1.0	1	.	4%	-6	5.8	3.7
O=c1oc2ccccc2cc1-c1cn(-c2ccccc2)c(=S)[nH]1	9	-8.2	8	-3.6	-8%	13	2.3	8.5
O=C(COc1ccc(F)cc1)NCC1(N2CCOCC2)CCCCC1	.	0.1	-4	0.8	-7%	.	.	3.4
CCn1ncc(/C=N\NC(=O)COc2ccccc2)c1C	-7	0.9	-10	.	-9%	-1	-0.1	1.6
O=C(/C=C/c1ccccc1)N1CCCN(C(=O)/C=C/c2ccccc2)CC1	0	0.5	3	.	18%	-16	-2.2	-0.4
CCOC(=O)CCC(=O)Nc1ccccc1C(N)=O	-10	0.1	-2	.	-3%	-11	6.0	-1.8
O=C(CN1CCC(NC(=O)c2ccccc2F)CC1)Nc1ccc2c(c1)OCO2	-2	0.9	-10	.	-5%	35	?	0.9
Cc1ccc2oc3c(c(=O)c2c1)C(c1cccc(Cl)c1)N(CCCN1CCOCC1)C3=O (stereo not given)	8	-0.2	-6	3.8	.	10	-2.1	-3.5
Cc1ccc(S(=O)(=O)N2CCC(C(=O)Nc3cccnc3)CC2)cc1	.	0.1	-2	-0.8	-3%	.	.	-0.2
CCOCCCNC(=O)c1c(-c2ccccc2)noc1C	-2	1.4	-3	.	-3%	-2	0.0	-2.8
O=C(NCC1CCCO1)C1CCCN1C(=O)Nc1ccc(Cl)c(Cl)c1 (stereo not given)	-13	0.0	1	-0.7	0%	-5	1.2	3.0
CC(C)c1ccc(/C=N/NC(=O)c2cccc(S(=O)(=O)N3CCOCC3)c2)cc1	-5	-0.2	-1	-8.2	3%	-2	-2.0	0.9
CCn1c(SCC(=O)Nc2ccc(F)cc2)nc2ccccc2c1=O	13	0.8	-1	-2.3	-13%	1	3.3	4.8
CCCCCN1CC(O)=C(c2nc(-c3ccc(Cl)cc3)cs2)C1=N	5	1.4	-1	.	-12%	-1	-3.4	-6.4
CCC(C(=O)NCCc1ccc(OC)cc1OC)n1nc(C)n2c(cc3occc32)c1=O (stereo not given)	-1	-0.4	-2	-1.7	4%	-11	6.6	-3.2
COc1ccccc1C(=O)Nc1nnc(-c2ccccc2)s1	7	-1.1	-10	0.1	-3%	-2	3.4	0.3
COC(C[C@@H]1O[C@@H]1[C@@H](O)COCc1ccccc1)OC	-10	.	.	-0.6	3%	5	-1.3	.
CC(=O)c1cc2c(ccc3ccccc32)oc1=O	-5	-1.2	.	-14	.	0	116*	-0.6
CCc1cc(/C(Cc2ccccn2)=N\O)c(O)cc1O	-7	0.2	-9	0.6	17%	20	8.6	8.3
COC(=O)[C@@H]1CC[C@H](C)[C@@H](c2ccc(C)cc2)N1C(=O)c1ccc(/C=N/O[C@H](C)c2cn([C@@H]3COC[C@H]3O)nn2)cc1	16	-0.5	.	.	.	0	0.7	3.6
O=c1[nH]c(COc2ccc(Br)cc2Cl)nc2ccccc12	8	-3.7	1	-2.6	6%	44	-4.0	-14
CCCNc1nc2c(c(=O)[nH]c(=O)n2C)n1CCc1ccccc1	16	0.0	1	4.1	3%	8	-0.8	-1.5
Nn1c(SCC(=O)Nc2ccc3c(c2)OCO3)nnc1C1CC1	-7	-0.4	-1	.	18%	-2	-2.0	0.0
O=C(COC(=O)c1cc(-c2ccc(Cl)s2)nc2ccccc12)NCc1ccco1	-4	-0.6	.	.	10%	3	1.1	-1.8
CC1CCCCC12NC(=O)N(CC(=O)Nc1cccnc1Cl)C2=O (stereo not given)	-3	0.1	-5	-1.6	.	4	3.9	0.9
COc1ccccc1N1CCN(C(=O)CCN2C(=O)c3cccc4cccc(c34)C2=O)CC1	11	1.4	-1	-14	7%	0	-2.0	2.0
CC(C)CN(C(=O)CN(C)S(=O)(=O)c1ccc(Cl)cc1)C1CCS(=O)(=O)C1 (stereo not given)	0	0.2	-2	-0.7	.	-6	2.3	-1.7
Cc1cccc(C(=O)Nc2ccc(C(=O)c3ccccc3)cc2)c1	9	0.1	7	-0.4	.	-14	0.9	-1.4
O=C(c1ccccc1)c1c[nH]c(C(=O)C(Cl)(Cl)Cl)c1	-5	1.1	-25	-25	1%	-14	1.5	1.8
COc1ccc(Cl)cc1S(=O)(=O)N1CCCC1	-1	-0.1	-7	.	-1%	21	0.7	1.2
CC(=O)c1c(C)[nH]c(C(=O)OCC(=O)NCCC(C)C)c1C	-12	-1.1	1	.	.	-3	0.7	0.6

Other records:
SMILES	T cruzi repl	Bfl-1 A1 inh	Beta cell apopt	AF4-AF9 inh	Vif A3G	Calb FLC	RanGTP-Impb inh	LANA-H2B inh
CCOC(=O)C1CCN(S(=O)(=O)c2ccc3c4c2CC(=O)N4CC(C)S3)CC1 (stereo not given)	-22	0.6	-5	-2.5	.	7	2.5	-6.3
Cc1ccc(N2CC(C(=O)N3CCCc4ccccc43)CC2=O)cc1 (stereo not given)	7	0.0	1	8.2	4%	-2	?	0.9
Cc1cc(N2C(=O)C(O)=C(C(=O)c3cccs3)C2c2cccc(O)c2)no1 (stereo not given)	-3	0.0	0	.	-9%	3	-1.0	6.0
CSc1ccccc1NC(=O)CN(C)C(=O)CCc1c[nH]c2ccccc12	6	1.6	.	2.0	-2%	2	-0.5	5.1
CC(=O)CSc1nnc(NC(=O)CCc2ccccc2)s1	4	-0.8	1	.	21%	-3	4.6	0.6
O=C(Nc1ccc(S(=O)(=O)NC2=NCCCCC2)cc1)C1COc2ccccc2O1 (stereo not given)	-7	-0.6	-2	-11	.	-2	-4.2	1.5
CCCC1=[N+](CC(=O)c2ccccc2)CCn2cccc21	15	-0.8	.	.	29%	-4	-0.3	-1.9
Cc1ccc(S(=O)(=O)NN2C(=O)c3ccccc3NC2(C)C)cc1	2	-0.3	2	5.4	.	4	0.5	2.8
Cc1cc(C)c(S(=O)(=O)Nc2ccc(O)c(Sc3ncn[nH]3)c2)c(C)c1	9	-1.5	-8	-0.7	.	16	2.0	-2.2
CCOC(=O)NC(=O)CSc1nc(C)cc(C(F)(F)F)c1C#N	0	-0.1	-13	.	?	21	2.0	-2.6
CCn1c(SCC(=O)Nc2nc(C)cs2)nnc1C(C)NC(=O)c1ccccc1 (stereo not given)	-5	1.1	-7	.	-1%&6%	0	3.9	1.5
COc1ccc(N2CC(NS(=O)(=O)c3ccc4ccccc4c3)CC2=O)cc1 (stereo not given)	-5	0.4	-7	-4.1	1%	-7	-0.2	2.5
O=C(NCC(c1ccco1)N1CCOCC1)c1ccc(F)c(F)c1 (stereo not given)	-5	0.6	-5	-1.1	2%	-4	-2.0	-2.7
Nc1ccc(-c2ccc(C(=O)O)s2)cn1	-22	-6.0	2	-1.8	-9%	-10	0.1	3.0

Assay outcomes deposited in PubChem by several laboratories.
